Screening results as filed in PubChem.
MenB inh: Mtb MenB enzyme inhibition; P9WNP5; MenB enzyme assay, absorbance read-out; some hits fall short of the stated cut; inhibition, %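 (about 12 µg/mL by stock and volumes)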; actives 0.43% (n = 100,000); AID 540299;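 active means mean of two replicates above 30%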;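 further: 0% = no compound and 100% = wells with inactive enzyme; the first replicate is given; strong numbers were not always called active; inactives centre near -10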
Target sequence (P9WNP5 whole entry, looked up): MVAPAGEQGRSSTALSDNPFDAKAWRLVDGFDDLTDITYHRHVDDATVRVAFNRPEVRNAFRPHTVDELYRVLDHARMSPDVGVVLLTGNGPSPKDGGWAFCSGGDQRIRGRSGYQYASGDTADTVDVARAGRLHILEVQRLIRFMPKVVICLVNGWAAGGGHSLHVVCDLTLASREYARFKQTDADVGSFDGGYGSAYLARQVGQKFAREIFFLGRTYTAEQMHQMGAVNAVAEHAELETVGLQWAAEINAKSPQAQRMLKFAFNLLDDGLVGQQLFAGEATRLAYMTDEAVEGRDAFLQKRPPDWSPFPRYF
Polio RdRp inh: poliovirus RNA polymerase inhibition; actives 0.66% (n = 150,000); AID 588519; % elongation, % (compound at 16.7 µg/mL); poliovirus polymerase elongation, fluorescence polarization; stronger effect = lower value; in the data active means % elongation below about 90%; further: some results filed as inactive read as strong as hits
Target sequence (P03300 1749-2209 limits assumed): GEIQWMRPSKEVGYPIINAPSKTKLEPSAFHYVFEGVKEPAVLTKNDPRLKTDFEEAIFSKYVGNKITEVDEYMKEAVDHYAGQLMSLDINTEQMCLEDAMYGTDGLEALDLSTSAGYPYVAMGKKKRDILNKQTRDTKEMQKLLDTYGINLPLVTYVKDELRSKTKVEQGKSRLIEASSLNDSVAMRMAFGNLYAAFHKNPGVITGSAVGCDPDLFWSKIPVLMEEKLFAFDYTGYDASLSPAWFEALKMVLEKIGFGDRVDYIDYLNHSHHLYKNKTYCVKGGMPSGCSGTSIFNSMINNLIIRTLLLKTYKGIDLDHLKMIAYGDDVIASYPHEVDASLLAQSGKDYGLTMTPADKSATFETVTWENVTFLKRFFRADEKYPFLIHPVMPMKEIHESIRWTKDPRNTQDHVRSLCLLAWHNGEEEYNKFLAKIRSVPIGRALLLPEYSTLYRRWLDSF
Mtb MbtI inh: blocks the Mycobacterium tuberculosis siderophore enzyme MbtI. inhibition, %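 (about 17 µg/mL by stock and volumes)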. purified MbtI enzyme, fluorescence intensity read-out. P9WFX0. AID 493033. actives 0.89% (n = 100,000);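 active means above 50% in both replicates, above 80% if mildly self-fluorescent; inactive means the rest, strongly fluorescent compounds included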;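 further: 0% = mean of negative and 100% = mean of positive controls; one replicate is shown; some compounds called inactive have numbers as strong as hits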
Polio RdRp inh intensity: further read-out of Polio RdRp inh, marked with its call; % elongation; measured here: total intensity read-out; formula for this scale not given here;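 total fluorescence in place of polarization; lower means less elongation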
* hit, by the source's call; nt = no result given; & = joins results of further samples.

SMILES,MenB inh,Polio RdRp inh,Polio RdRp inh intensity,Mtb MbtI inh
COc1nc(OC)nc(N2CCC(C(=O)NC3CCCCCC3)CC2)n1,18.5,102.0,100.0,-2.8
CN1CCN(CCC(=O)N/N=C/c2ccccc2)CC1,-48.2,102.0,103.0,6.1
Brc1cncc(Br)c1,-18.3,102.0,98.0,7.7
COCCNC(=O)c1cc(-c2ccccc2O)no1,-7.8,105.0,100.0,-8.6
CN(C)S(=O)(=O)c1ccc(C(=O)Nc2nnc(C3CC3)o2)cc1,8.9,100.0,105.0,6.3
NNC(=O)CCc1ccc(O)cc1,-6.7,103.0,100.0,-3.8
CCC1Oc2ccc(C)cc2N(CC(=O)Nc2ccc3c(c2)OCCO3)C1=O (stereo unspecified),-53.7,107.0,100.0,-3.7
CC1CN(Cn2c(=S)oc3ccccc32)CC(C)O1 (stereo unspecified),-27.9,90.0*,97.0*,60.3
O=C1CC2(O)CCC1(c1ccccc1)CC2,8.9,98.0,100.0,-2.1
O=C1/C(=C/c2ccco2)CCc2ccccc21,-24.4,101.0,101.0,16.4
Cn1c(=O)cc(OCC(=O)NCC2COc3ccccc3O2)c2ccccc21 (stereo unspecified),7.9,100.0,101.0,11.2
Cc1ccc(-c2nc3ncccn3c2NC(=O)c2cccc(C(F)(F)F)c2)cc1,-13.1,104.0,109.0,-11.4
Cc1cccc(NC(=O)COC(=O)c2cc(C)oc2C)c1,-21.7,103.0,106.0,4.1
CC(O)c1cc2ccccc2o1 (stereo unspecified),2.8,107.0,111.0,-6.1
C1CCN(CCC2CCNCC2)CC1,-2.0,103.0,102.0,-6.2
CC(Oc1cc(C(F)(F)F)cc(C(F)(F)F)c1)C(=O)NC(N)=O (stereo unspecified),-12.6,107.0,104.0,-13.7
CCc1cc2c(=O)c(-c3nc4ccccc4s3)c(C)oc2c(CN(C)C)c1O,0.2,100.0,98.0,nt
O=c1ccc2ccccc2o1,-5.6,101.0,99.0,-6.3
CCOc1ccc(NC(=O)c2c3c(nc4ccccc24)CCCC3)cc1,-16.5,102.0,107.0,nt
CC1CCCC(C)N1CC(O)c1ccccc1 (stereo unspecified),nt,101.0,105.0,-2.2
Clc1ccc(COC(Cn2ccnc2)c2ccc(Cl)cc2Cl)c(Cl)c1 (stereo unspecified),-1.7&-2.1,102.0&101.0,101.0&100.0,-7.6&-3.5
O=C(Nc1ccc(-c2nc3ccccc3s2)cc1)C1CCCO1 (stereo unspecified),-15.9,101.0,94.0,nt
O=C(NCCC1CCCC1)c1cccs1,14.8,102.0,103.0,-6.2
Cc1cc(C)nc(SCC(=O)OCC(=O)Nc2sccc2C#N)n1,-36.3,132.0,141.0,11.1
Fc1cnc(Nc2ccc3c(c2)OCO3)nc1Nc1ccc2c(c1)OCO2,-4.2,98.0,89.0,nt
CC1CN(C(=O)CNc2ccccc2C(=O)NCc2ccccc2)CC(C)O1 (stereo unspecified),-3.3,108.0,114.0,105.0
CC(NC(=O)c1ccccc1)c1nc2ccccc2n1CC(=O)NC(=O)NC(C)(C)C (stereo unspecified),6.5,99.0,99.0,-1.8
CCOC(=O)c1nnn2c1nc(N(Cc1ccccc1)Cc1ccccc1)c1ccccc12,16.8,99.0,97.0,11.2
NC(=O)C1C(=O)NC(c2ccccc2)=CC1c1ccc(Cl)cc1 (stereo unspecified),-24.6,102.0,100.0,7.2
Cn1c(C(=O)OCC(=O)NC2CCCCC2)cc2sccc21,-14.2,103.0,104.0,-11.4
Cc1nn(C(=O)C23CC4CC(CC(C4)C2)C3)c(C)c1Sc1ccccc1,10.9,103.0,105.0,-10.1
CC1Cc2ccccc2N1CC(=O)N1Cc2ccccc2C1 (stereo unspecified),-33.2,99.0,106.0,1.6
COc1cc(/C=N/N=C2/SC(CC(=O)O)C(=O)N2C)cc(OC)c1OC (stereo unspecified),10.2,101.0,100.0,14.2
O=C(Cc1ccc(Cl)cc1)Nc1cccc(-c2nc3cc4ccccc4cc3[nH]2)c1,-34.4,101.0,106.0,107.5
CCOC(=O)c1c(-c2ccccc2)oc2ccc(NS(=O)(=O)c3ccc(CC)cc3)cc12,-43.5,100.0,103.0,107.3
COC(=O)C1(C(=O)OC)CC=CC1,nt,104.0,104.0,-10.1
N#C/C(C(=S)NCc1ccccc1)=C1/NN=C2CCCCCN21,-4.1,102.0,101.0,7.6
CC(C)Nc1nc(Cl)nc(NC(C)(C)CO)n1,-4.4,105.0,99.0,nt
CC1CCC(C(C)C)C(OC(=O)CN2CCCCC2)C1 (stereo unspecified),-10.8,90.0,86.0,nt
CC(C)(CO)C(O)C(=O)NN (stereo unspecified),-9.9,99.0,103.0,-3.2
CCOc1ccccc1-c1cc(C(=O)N/N=C(\C)c2ccco2)[nH]n1,-16.8,103.0,99.0,15.4
CNC(=S)N/N=C/c1cccc(Cl)c1,-6.5,13.0*,28.0*,23.8
O=C1c2cccnc2C(=O)N1c1ccc2c(c1)OCO2,-17.9,105.0,102.0,-22.6
CC(C)n1cc(C(=O)O)c(=O)c2ccccc21,1.5,103.0,104.0,2.4
CCCc1cc(=O)[nH]c2c1c(C)nn2-c1cccc(F)c1,-30.2,102.0,104.0,-57.4
OCc1ccccc1O,-10.0,104.0,101.0,-17.9
O=C(COc1ccccc1)N1CCN(C(=O)COc2ccccc2)CC1,-11.7,103.0,109.0,nt
CC1CCCC(C)N1S(=O)(=O)c1ccc(NC(=O)CCn2cnc3ccccc3c2=O)cc1 (stereo unspecified),-1.5,98.0,101.0,-6.3
O=C(NCc1ccc(F)cc1)c1ccncc1,-11.3,102.0,103.0,-16.0
Cc1ccc(NC2C=CS(=O)(=O)C2)cc1 (stereo unspecified),-37.5,101.0,106.0,-223.8
Cc1noc(C)c1C(=O)NCC(c1ccccc1Cl)c1c[nH]c2ccccc12 (stereo unspecified),-29.6,nt,nt,0.3
Cc1ccc(N=C2CCCN2Cc2ccccc2)c(C#N)c1,-53.9,102.0,103.0,1.2
COc1ccc2c(-c3ccccc3)cc(=O)[nH]c2c1,nt,103.0,106.0,-3.8
O=C(NCc1ccco1)Nc1ccccc1,11.6,103.0,101.0,-2.9
Nc1ccccc1C(=O)NCc1ccccc1,15.4,100.0,103.0,101.0
Cc1cnc(NC(=O)c2ccc3c(c2)OCO3)s1,-8.3,101.0,101.0,-5.5
CC(=O)Nc1sc2c(c1CN(C)C)CCCC2,-12.5,107.0,107.0,-5.7
O=C(NC1CC1)c1ccccc1SCc1ccc(F)cc1,4.2,91.0,103.0,nt
CCOc1cc(S(=O)(=O)N2CCC(c3nc4ccccc4s3)CC2)c(OCC)cc1S(=O)(=O)N1CCOCC1,-18.1,100.0,101.0,-8.2
Cc1ccc(C(=O)OCc2ccco2)cc1,11.9,100.0,102.0,1.4

Compound profiles, from the list above. Values in the order: MenB inh, Polio RdRp inh, Polio RdRp inh intensity, Mtb MbtI inh
CC(C)(CO)C(O)C(=O)NN (stereo unspecified) is listed as -9.9, 99.0, 103.0, -3.2
O=C(NC1CC1)c1ccccc1SCc1ccc(F)cc1 is listed as 4.2, 91.0, 103.0, nt
CC(C)Nc1nc(Cl)nc(NC(C)(C)CO)n1 is listed as -4.4, 105.0, 99.0, nt

The results go on:
The line under a structure holds: MenB inh, Polio RdRp inh, Polio RdRp inh intensity, Mtb MbtI inh
> O=C(O)c1cccc(Oc2cccc(C(F)(F)F)c2)c1
    -3.0, 102.0, 99.0, -2.5
> COc1ccc(N2CCN(Cc3ccc(C)o3)CC2)cc1
    -15.8, 101.0, 105.0, -32.3
> Cc1ccc(C)n1-c1ccc(C(=O)NN)s1
    1.6, 111.0, 106.0, 41.9
> Cc1cc2oc(=O)cc(COC(=O)C3CC3)c2cc1Cl
    -10.1, 100.0, 105.0, 7.0
> Clc1ccc(OCc2ccsc2Cn2cccc2)cc1
    -18.4, 109.0, 113.0, -3.6
> CN(c1ccc(C(=O)NCc2cccnc2)cc1)S(C)(=O)=O
    -41.6, 105.0, 102.0, -5.6
> OC[C@H]1O[C@@H](n2cnc3cc(Cl)c(Cl)cc32)C(O)[C@H]1O (stereo partly specified)
    5.9, 99.0&99.0, 104.0&102.0, -6.5
> COc1cc(NC(=O)c2ccccc2)c(OC)cc1NCC(=O)Nc1ccc2c(c1)OCCO2
    -8.6, 103.0, 104.0, 8.8
> C(=NCCCN1CCOCC1)c1ccc2c(c1)OCO2
    -35.6, 99.0, 102.0, -3.5
> COc1ccc(/C=C(\C#N)C(=O)ONC2=NCCCCC2)cc1
    1.2, 100.0, 108.0, 2.5
> S=C1NC2=C(C(c3ccc(Br)cc3)N1)N1CCC2CC1 (stereo unspecified)
    -17.7, 103.0, 103.0, 0.3
> O=C(O)c1ccc(N2N=C(C(F)(F)F)/C(=C/c3ccc(-c4ccc5c(c4)C(=O)NC5=O)o3)C2=O)cc1
    -9.2, 109.0, 110.0, nt
> CC1CC(C)CN(C(=O)Cn2c(SCC(=O)N(C(C)C)C(C)C)nc3ccccc32)C1 (stereo unspecified)
    -71.1, 102.0, 102.0, -8.1
> CC1=C(C(=O)N(C)C)C(c2ccccc2)NC(=S)N1 (stereo unspecified)
    -21.8, 103.0, 102.0, 2.2
> CCC1Cc2c(nc3c4c(nc(N5CCOCC5)c(C#N)c24)NC(C)=N3)O1 (stereo unspecified)
    13.6, 94.0, 97.0, -203.1
> N#Cc1cnc(SCCc2ccccc2)nc1N
    33.1*, 105.0, 119.0, 48.4
> CCCCn1c(SCC(=O)NCc2ccco2)nc2ccccc2c1=O
    4.4, 102.0, 105.0, 1.2
> CCNCc1ccc(N(C)C)cc1
    -5.6, 102.0, 109.0, -6.3
> CCOc1cc(/C=C2/NC(=O)N(c3ccccc3)C2=O)cc(Br)c1O
    -46.5, 106.0, 103.0, -1.5
> Cc1ccc(NC(=O)C(NS(=O)(=O)c2ccc3nc(C)sc3c2)C(C)C)cc1 (stereo unspecified)
    -3.4, 100.0, 98.0, -1.8
> CNC(=O)c1ccc(OC(C)=O)cc1
    -18.7, 107.0, 97.0, nt
> O=C(NC1CC1)c1ccc(CS(=O)c2ccccc2)o1 (stereo unspecified)
    6.5, 101.0, 97.0, 3.5
> CN(C1=NS(=O)(=O)c2ccccc21)c1ccccc1
    -15.1, 101.0, 99.0, 5.6
> CC1=CC(C)(C)N(C(=O)CSc2nnc(-c3ccccc3)o2)c2ccccc21
    -13.9, 100.0, 101.0, -3.5
> O=C(Cc1n[nH]c(=O)c2ccccc12)N/N=C/c1ccncc1
    -25.4, 104.0, 102.0, -2.1
> O=C(/C=C/c1ccccc1)CC(O)(c1ccccc1)C(F)(F)F (stereo unspecified)
    -23.0, 102.0, 98.0, 1.3
> CNC(=S)Nn1cnc2ccccc21
    -7.0, 102.0, 106.0, -4.8
> C=CCSc1nc2ccccc2n1CN1CCCC(C(N)=O)C1 (stereo unspecified)
    -10.0, 103.0, 116.0, -1.5
> COc1cc(/C=C/C(=O)OCc2cn3cc(Cl)ccc3n2)ccc1O
    -16.2, 100.0, 100.0, -11.2
> CCCCn1c(C)nc2ccc(S(N)(=O)=O)cc21
    nt, 101.0, 107.0, -5.2
> Cc1ccc(Cc2nn[nH]n2)cc1
    -1.3, 96.0, 104.0, -10.6
> CS(=O)(=O)N(CCc1ccccc1)CC(=O)N1CCCC1
    -26.5, 105.0, 102.0, -3.6
> COc1cc(CO)ccc1OCC(=O)N1c2ccccc2CC1C (stereo unspecified)
    10.5, 101.0, 105.0, 0.5
> CCCCNS(=O)(=O)c1ccc2[nH]c(=S)[nH]c2c1
    -22.9, 88.0*, 88.0*, 87.3
> COc1cccc(N=C2NNC(C)=C(C(=O)N(C)C)S2)c1
    -6.7, 83.0*, 87.0*, 58.8*
> CC1CCCCN1S(=O)(=O)c1ccc(CN2C(=O)c3cccnc3C2=O)cc1 (stereo unspecified)
    -40.3, 105.0, 104.0, -4.5
> CSc1ccc(C2C3CCCc4ccccc4C3=NN2CCO)cc1 (stereo unspecified)
    -15.7, 102.0, 108.0, 62.1
> C(/C=C/c1ccccc1)=N/N1CCN(c2ccccc2)CC1
    -17.8, 99.0, 101.0, -10.7
> CC1(C)CC(=O)c2cnc(NCc3ccccc3)nc2C1
    -18.8, 102.0, 105.0, 15.2
> O=C1CN=C(Nc2ccc(F)cc2)N1C1CCCC1
    -33.5, 102.0, 104.0, -1.0
> COc1ccc(/C=N/NC2=NS(=O)(=O)c3ccccc32)cc1
    -6.2, 104.0, 103.0, 17.2
> N#Cc1cccc(NC(=O)CSc2nc3cc(S(=O)(=O)N4CCCCC4)ccc3o2)c1
    -9.0, 107.0, 112.0, 12.3
> COc1ccc(N2CCN(c3cc(=O)n4oc(C)cc4n3)CC2)cc1
    -22.4, 106.0, 107.0, -12.7

Quoted from the listing.
COc1cc(CO)ccc1OCC(=O)N1c2ccccc2CC1C (stereo unspecified) – Polio RdRp inh intensity: 105.0
COc1ccc(/C=N/NC2=NS(=O)(=O)c3ccccc32)cc1 – Mtb MbtI inh: 17.2
COc1cccc(N=C2NNC(C)=C(C(=O)N(C)C)S2)c1 – Polio RdRp inh intensity: 87.0*
N#Cc1cccc(NC(=O)CSc2nc3cc(S(=O)(=O)N4CCCCC4)ccc3o2)c1 – Polio RdRp inh: 107.0
CC1(C)CC(=O)c2cnc(NCc3ccccc3)nc2C1 – Polio RdRp inh intensity: 105.0
O=C1CN=C(Nc2ccc(F)cc2)N1C1CCCC1 – Polio RdRp inh intensity: 104.0
